Screens as filed in PubChem.
FGF22 binding – binders of recombinant human FGF22 by thermal shift; AID 651658; Q9HCT0; SYPRO orange fluorescence; percent of sucrose octasulfate shift, DMSO zero; 340,000 tested, 1.5% active; calls only at 9.99 µM;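 active = melting point raised past a set limit in the mean and every replicate; three in four hits are not shown here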
Target sequence (Q9HCT0 whole entry, looked up): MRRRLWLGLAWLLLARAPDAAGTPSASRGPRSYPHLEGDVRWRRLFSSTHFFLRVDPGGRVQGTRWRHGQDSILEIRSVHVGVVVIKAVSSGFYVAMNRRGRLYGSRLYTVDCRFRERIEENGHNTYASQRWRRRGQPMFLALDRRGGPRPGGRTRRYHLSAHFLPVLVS
rRNA inh HTS – inhibits bacterial ribosomal RNA function over humanized ribosomes | 350,000 tested, 1.6% active | E. coli WT GFP vs humanized-ribosome RFP mutants, fluorescence, 24 h; stronger effect = lower value; DMSO median 0, no signal -100 | AID 720706 | GFP signal change (wild-type ribosome), % (concentration not given with the values);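 active = significant combined selectivity score with lowered wild-type GFP, culture density cut under 30%, mutant RFP and density less affected; inactive = any of these conditions unmet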; note: one replicate is shown; some compounds called inactive have numbers as strong as hits
rRNA inh HTS OD600 – recorded beside rRNA inh HTS, whose call it bears; OD600 change, %; measured here: OD600 growth;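 optical density of the mix in the first replicate; 0 = DMSO median and -100 = no signal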
rRNA inh HTS RFP – further read-out of rRNA inh HTS, marked with its call; RFP signal change, %; measured here: RFP humanized mutant strains;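 first replicate; 0 = DMSO median and -100 = no signal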
* marks the source's active call; other numbers are inactive results; i = inactive; . = no result given; & = joins results of further samples. An excerpt (hit frequency here may not be typical).

SMILES	FGF22 binding	rRNA inh HTS	rRNA inh HTS OD600	rRNA inh HTS RFP
CCS(=O)(=O)Nc1ccc2c(c1)C(=O)N(C)[C@@H]1CC[C@H](CC(=O)NCCOC)O[C@H]1CO2	i	3	1	-2.0
C[C@@H]1CN([C@H](C)CO)S(=O)(=O)c2ccc(C#CC(C)(C)O)cc2O[C@H]1CN(C)Cc1ccc(-c2ccccc2)cc1	i	4	-1	3.5
C[C@@H]1CN([C@@H](C)CO)C(=O)c2c(c3ccccc3n2C)-c2ccccc2CO[C@H]1CN(C)S(=O)(=O)c1ccsc1	i	-1	-2	0.9
C[C@H]1CN([C@@H](C)CO)S(=O)(=O)c2ccc(-c3cccc(C(=O)N(C)C)c3)cc2O[C@@H]1CN(C)C(=O)Nc1ccc(F)cc1	i	2	14	1.2
Cc1ccc(-c2ccc3c(c2)O[C@H](CN(C)Cc2ccncc2)[C@H](C)CN([C@@H](C)CO)S3(=O)=O)cc1	i	-2	-24	5.1
C[C@@H]1CCCCO[C@@H](CN(C)Cc2ccc(Cl)c(Cl)c2)[C@H](C)CN([C@H](C)CO)C(=O)c2cc(NS(C)(=O)=O)ccc2O1	i	2	-43	19
Cc1noc(C)c1S(=O)(=O)N(C)C[C@@H]1OCCCC[C@H](C)Oc2ccc(NC(=O)C3CCCCC3)cc2C(=O)N([C@H](C)CO)C[C@H]1C	i	-3	-11	-0.8
C[C@@H]1CN([C@@H](C)CO)C(=O)Cc2cc(NC(=O)Cc3ccccc3)ccc2O[C@H]1CN(C)C(=O)Nc1ccc(F)cc1	i	3	-3	-0.4
CC(C)[C@H](NC(=O)[C@H](C)NC(=O)OC(C)(C)C)C(=O)N1CCC2CCN(Cc3ccccc3)CC21 (stereo partly drawn)	i	7	10	0.3
O=C(C[C@@H]1CC[C@@H]2[C@H](COC[C@@H](O)CN2Cc2ccncc2)O1)NCc1ccccc1Cl	i	1	19	-5.2
COCC#Cc1ccc2c(c1)O[C@H](CN(C)Cc1ccc(F)cc1)[C@@H](C)CN([C@H](C)CO)S2(=O)=O	i	-6	-28	-5.4
O=C(c1ccccn1)N1CC[C@H]2[C@H](CO)Nc3ccc(C#Cc4cccnc4)cc3[C@H]21	i	-3	4	-13
CNC(=O)C[C@@H]1CC[C@@H]2[C@H](COc3ccc(NC(=O)c4cccs4)cc3C(=O)N2C)O1	i	5	2	-1.9
CCC(=O)N1[C@H](CO)[C@H]2c3ccccc3N(C(=O)c3ccc4c(c3)OCO4)C[C@H]21	i	3	6	-2.8
COc1ccc(NC(=O)N(C)C[C@@H]2Oc3ccc(NC(=O)NC(C)C)cc3CC(=O)N([C@@H](C)CO)C[C@@H]2C)cc1	i	3	5	-1.4
COCC#Cc1ccc([C@@H]2[C@@H](C#N)N(C(=O)Cc3ccccc3)[C@@H]2CO)cc1	i	2	20	0.0
COc1ccc2c3c(n(C)c2c1)[C@@H](CO)N(S(C)(=O)=O)CC31CCN(CC2CC2)CC1	i	1	6	-0.6
CN(C)CCCNC(=O)C[C@H]1CC[C@H]2[C@@H](COc3ccc(NC(=O)c4ccccc4F)cc3C(=O)N2C)O1	i	3	9	-0.5
COc1ccc(S(=O)(=O)Nc2ccc3c(c2)C(=O)N([C@H](C)CO)C[C@H](C)[C@@H](CN(C)S(=O)(=O)c2ccc(OC)cc2)OCCCC[C@@H](C)O3)cc1	i	1	2	-0.4
CO[C@H]1CN(C)C(=O)c2cc(NC(C)=O)ccc2OC[C@@H](C)N(Cc2ccccc2C(=O)O)C[C@@H]1C	i	3	2	-1.1
CCN(C[C@H]1N[C@H](CO)[C@@H]1c1ccc(-c2cccc(F)c2)cc1)C(=O)COC	i	-1	1	2.6
C[C@@H]1CN([C@@H](C)CO)C(=O)Cc2cc(NC(=O)Cc3cn(C)c4ccccc34)ccc2O[C@H]1CN(C)C(=O)Nc1cccc2ccccc12	i	-3	-3	0.3
C[C@@H]1CN([C@@H](C)CO)C(=O)c2cc(NC(=O)CCCCCC(=O)Nc3ccccc3N)ccc2O[C@@H]1CN(C)C(=O)Nc1ccccc1	i	1	12	-0.9
O=C(C[C@@H]1C=C[C@H](NC(=O)CC2CC2)[C@@H](CO)O1)NCC(F)(F)F	i	2	2	1.3
C[C@H]1CN([C@@H](C)CO)S(=O)(=O)c2ccc(C#CC3CC3)cc2O[C@@H]1CN(C)Cc1ccncc1	i	-49	-66	3.6
O=C(Nc1ccccc1)N1C[C@@H]2[C@H](c3ccccc31)[C@@H](CO)N2C(=O)c1ccccn1	i	0	7	1.5
COc1ccc(NC(=O)N(C)C[C@@H]2Oc3cc(-c4ccncc4)ccc3S(=O)(=O)N([C@@H](C)CO)C[C@@H]2C)cc1	i	-1	2	-5.3
Cc1noc(C)c1NC(=O)N(C)C[C@H]1Oc2c(NC(=O)C3CC3)cccc2C(=O)N([C@@H](C)CO)C[C@H]1C	i	3	12	-1.6
CCCNC(=O)N1[C@H](C#N)[C@@H](c2ccccc2)[C@H]1CO	i	6	10	-4.5
CNC[C@@H]1Oc2ccc(NS(=O)(=O)c3cccs3)cc2CC(=O)N([C@H](C)CO)C[C@@H]1C	i	1	11	0.8
COc1cccc(S(=O)(=O)Nc2ccc3c(c2)C(=O)N(C)[C@H]2CC[C@@H](CC(=O)O)O[C@H]2CO3)c1	i	1	-1	-1.6
COC(=O)C1=C(C)N(Cc2ccc(C(F)(F)F)cc2)C(=NCc2ccc(C(F)(F)F)cc2)NC1c1cccc(C(F)(F)F)c1 (stereo not drawn)	.	-38	-45	-3.0
COc1cccc(NC(=O)N[C@H]2C=C[C@@H](CC(=O)N3CCCCC3)O[C@@H]2CO)c1	i	0	0	0.3
COc1ccc(S(=O)(=O)N(C)C[C@H]2Oc3ccc(NC(=O)CCN4CCOCC4)cc3CC(=O)N([C@@H](C)CO)C[C@H]2C)cc1	i	0	1	-1.0
O=C(C[C@H]1C=C[C@H](NC(=O)Nc2ccc3c(c2)OCO3)[C@@H](CO)O1)NCc1ccc2c(c1)OCO2	i	-6	-7	-0.2
O=C(Nc1ccccc1F)N[C@H]1CC[C@@H](CCNC(=O)C2CCCC2)O[C@@H]1CO	i	-1	-3	-2.5

Record cards, from the list above:
`CNC(=O)C[C@@H]1CC[C@@H]2[C@H](COc3ccc(NC(=O)c4cccs4)cc3C(=O)N2C)O1` is entered as FGF22 binding: i; rRNA inh HTS: 5; rRNA inh HTS OD600: 2; rRNA inh HTS RFP: -1.9
`O=C(C[C@@H]1C=C[C@H](NC(=O)CC2CC2)[C@@H](CO)O1)NCC(F)(F)F` is entered as FGF22 binding: i; rRNA inh HTS: 2; rRNA inh HTS OD600: 2; rRNA inh HTS RFP: 1.3

Carrying on.
SMILES	FGF22 binding	rRNA inh HTS	rRNA inh HTS OD600	rRNA inh HTS RFP
O=C(C1CCOCC1)N1CC[C@@H]2[C@H]1c1cc(-c3ccc(F)cc3)ccc1N[C@@H]2CO	i	2	-6	6.3
C[C@@H]1CCCCO[C@@H](CN(C)S(=O)(=O)c2ccc(Cl)cc2)[C@@H](C)CN([C@H](C)CO)C(=O)c2cc(NC(=O)c3ccccc3)ccc2O1	i	3	-1	-0.7
CCCNC(=O)N1CC2(CCN(Cc3cccc(OC)c3)CC2)c2c([nH]c3cc(OC)ccc23)[C@@H]1CO	i	0	-1	1.3
CC(C)NC(=O)Nc1cccc2c1O[C@@H](CN(C)Cc1ccc(Cl)c(Cl)c1)[C@@H](C)CN([C@@H](C)CO)C2=O	i	2	5	-0.5
CN1C(=O)c2cc(NC(=O)c3ccc(F)c(F)c3)ccc2OC[C@H]2O[C@@H](CC(=O)N[C@@H]3CCN(Cc4ccccc4)C3)CC[C@H]21	i	-3&-4	-5&2	6.5&16
C[C@H](CO)N1C[C@H](C)[C@@H](CN(C)Cc2cccnc2)Oc2ncc(C#Cc3ccccn3)cc2C1=O	i	3	6	3.0
CN1C(=O)c2cc(NC(=O)c3cccc(F)c3)ccc2OC[C@@H]2O[C@H](CC(=O)NC3CCC3)CC[C@@H]21	i	-3	-1	1.7
CC(C)NC(=O)N(C)C[C@@H]1OCCCC[C@H](C)Oc2ccc(NC(=O)c3ccncc3)cc2C(=O)N([C@@H](C)CO)C[C@H]1C	i	1	13	-3.0
Cc1ccc(S(=O)(=O)N[C@@H]2C=C[C@@H](CC(=O)O)O[C@H]2CO)cc1	i	0	5	0.5
COc1cccc(C#Cc2cnc3c(c2)C(=O)N([C@H](C)CO)C[C@@H](C)[C@@H](CN(C)C(C)=O)O3)c1	i	-2	3	-1.1
COc1ccc(CN(C)C[C@H]2OCCCC[C@@H](C)Oc3ccc(NS(=O)(=O)c4cccs4)cc3C(=O)N([C@@H](C)CO)C[C@H]2C)cc1	i	1	-1	-0.1
Cc1ccc(S(=O)(=O)N(C)C[C@H]2Oc3ccc(NC(=O)C4CC4)cc3CC(=O)N([C@H](C)CO)C[C@H]2C)cc1	i	-1	-7	-1.1
CC(C)c1cn(CC[C@H]2CC[C@@H](NC(=O)C3CC3)[C@@H](CO)O2)nn1	i	0	-4	0.8
CN1C(=O)c2cc(NC(=O)c3cnccn3)ccc2OC[C@@H]2O[C@H](CC(=O)NCC3CCCCC3)CC[C@H]21	i	-1	9	-0.4
CNC[C@@H]1Oc2ncc(C#Cc3ccncc3)cc2C(=O)N([C@H](C)CO)C[C@@H]1C	i	6	11	2.8
C[C@H](CO)N1C[C@H](C)[C@H](CN(C)Cc2ccc(Cl)c(Cl)c2)OCCCC[C@H](C)Oc2ccc(NC(=O)Nc3ccc(C(F)(F)F)cc3)cc2C1=O	i	1	2	1.7
C[C@@H]1CN([C@H](C)CO)C(=O)c2cc(C#CC3CCCCC3)cnc2O[C@H]1CN(C)C(=O)c1ccncc1	i	-1	-7	1.8
CNC(=O)C[C@H]1CC[C@@H]2[C@@H](COc3ccc(NC(=O)c4ccc5c(c4)OCO5)cc3C(=O)N2C)O1	i	0	0	-0.1
C[C@@H]1CN([C@@H](C)CO)C(=O)c2cc(NC(=O)Nc3ccc(F)cc3)ccc2O[C@@H]1CN(C)Cc1ccc(C(=O)O)cc1	i	3	6	-2.6
CCCNC(=O)N1CC2(C1)CN(Cc1cccc(F)c1)[C@H](CO)c1[nH]c3cc(OC)ccc3c12	i	-1	-4	4.5
CC=Cc1ccc2n(c1=O)C[C@H]1[C@H](CO)[C@@H](C(=O)NCc3ccc(F)cc3)N(Cc3cncnc3)[C@@H]21 (mixture of isomers)	i	-3	10	-4.1
C[C@@H]1CN([C@@H](C)CO)C(=O)c2cc(NS(=O)(=O)c3ccc(F)cc3)ccc2O[C@H]1CN(C)CC1CC1	i	2	5	2.3
C[C@H]1CN([C@@H](C)CO)C(=O)Cc2cc(NC(=O)Nc3ccc(C(F)(F)F)cc3)ccc2O[C@H]1CN(C)C(=O)Nc1ccccc1	i	3	-18	2.1
C[C@H](CO)N1C[C@H](C)[C@@H](CN(C)C(=O)c2ccccc2)OCCCC[C@H](C)Oc2ccc(NC(=O)CCC(F)(F)F)cc2C1=O	i	-2	2	-1.8
O=C(N[C@@H]1CC[C@H](CCn2cc(C3CCCCC3)nn2)O[C@@H]1CO)c1cccnc1	i	-1	1	0.3
C[C@H](CO)N1C[C@H](C)[C@H](CN(C)Cc2ccc3c(c2)OCO3)Oc2ccc(NS(=O)(=O)c3cccs3)cc2CC1=O	i	-9	-16	0.9
C[C@@H]1CN([C@H](C)CO)C(=O)c2cc(NS(C)(=O)=O)ccc2O[C@@H](C)CCCCO[C@H]1CN(C)S(=O)(=O)c1ccc(F)cc1	i	-4	-1	0.1
C[C@@H]1CN([C@H](C)CO)C(=O)c2cc(NS(=O)(=O)c3ccc(Cl)cc3)ccc2O[C@@H]1CN(C)S(=O)(=O)c1ccc(F)cc1	i	-8	-14	0.3
O=C(Nc1ccc(F)cc1)N1CCCCN2[C@@H](CO)[C@H](c3ccc(C#Cc4ccccn4)cc3)[C@@H]2C1	i	-11	3	4.8

Five records drawn at random from the list so far, as already listed:
SMILES	FGF22 binding	rRNA inh HTS	rRNA inh HTS OD600	rRNA inh HTS RFP
C[C@H](CO)N1C[C@H](C)[C@@H](CN(C)C(=O)c2ccccc2)OCCCC[C@H](C)Oc2ccc(NC(=O)CCC(F)(F)F)cc2C1=O	i	-2	2	-1.8
CNC(=O)C[C@H]1CC[C@@H]2[C@@H](COc3ccc(NC(=O)c4ccc5c(c4)OCO5)cc3C(=O)N2C)O1	i	0	0	-0.1
C[C@@H]1CN([C@H](C)CO)C(=O)c2cc(NS(=O)(=O)c3ccc(Cl)cc3)ccc2O[C@@H]1CN(C)S(=O)(=O)c1ccc(F)cc1	i	-8	-14	0.3
C[C@H]1CN([C@@H](C)CO)C(=O)Cc2cc(NC(=O)Nc3ccc(C(F)(F)F)cc3)ccc2O[C@H]1CN(C)C(=O)Nc1ccccc1	i	3	-18	2.1
O=C(C1CCOCC1)N1CC[C@@H]2[C@H]1c1cc(-c3ccc(F)cc3)ccc1N[C@@H]2CO	i	2	-6	6.3
